Source: PubChem
NPYLR7 ag: agonists of mosquito NPYLR7 receptor, primary screen, cell-based, Aedes aegypti, calcium fluorescence, mosquito biting behavior; Aedes aegypti neuropeptide Y-like receptor 7 (NPYLR7); HEK293T NPYLR7/Galpha15, GCaMP6s calcium fluorescence; activation, % at 10 µM; hit rate 0.15% among 270,000; AID 1259423, 2018; in the data active = activation above about 40%;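 also: 0% = vehicle and 100% = reference agonist at the receptor; some compounds past the cut are filed as inactive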
NPYLR7 ag max-min: recorded beside NPYLR7 ag, whose call it bears; activation, %; measured here: Max-Min RFU normalised activation; some inactives read as strong as hits;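 span of the calcium signal over five minutes; 0% = vehicle and 100% = native peptide agonist; compound fluorescence can raise it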
Starred values were filed as active, the others as inactive; & = joins results of further samples.

compound	NPYLR7 ag	NPYLR7 ag max-min
COc1ccc(C(=O)NC(C(=O)NC2CC2)C2CCN(C(=O)CCc3ccccc3)CC2)cc1 (stereo not given)	10	6
O=C(NC1CCOC2(CCCCC2)C1)c1ncoc1-c1cccs1 (stereo not given)	1	0
Cc1ccc(NC(=O)CSc2ccc3nnc(CCNC(=O)c4ccccc4)n3n2)cc1	-2	-8
Cc1cc2nnc(C(=O)N(C)CC3OCCO3)c(C)n2n1	-8	-13
Cc1ccc(OCCC(=O)N2CCc3c(sc4[nH]c(=O)n(Cc5ccccc5)c(=O)c34)C2)cc1	5	1
O=C(NCC(=O)N1CCC(O)(Cc2ccccc2)CC1)C1CC1(c1ccccc1)c1ccccc1 (stereo not given)	-16	-23
C=N[C@@H](C(=O)N[C@@H]1C(=O)N2[C@@H]1SC(C)(C)[C@@H]2C(=O)O)c1ccccc1	-3	-6
CCO[C@H]1[C@H](NC(=O)CCCn2cncn2)c2ccccc2C12CCNCC2	3	3
O=S(=O)(NCc1ccccc1)N1CC=CC1	25	11
Cc1nc2nc(N)nc(OC(C)C)c2nc1C	3	0
COc1ccc2sc(N(Cc3cccnc3)C(=O)c3ccc(C#N)cc3)nc2c1	-10	-6
COc1ccc(NC(=O)NCCCn2nc(-c3ccccc3)ccc2=O)cc1	-3	-5
C=CCOc1ccc(CN(C)S(=O)(=O)c2c(C)n[nH]c2C)cc1	5	6
COc1ccccc1C(=O)Nc1ccc(Nc2ccc(-n3cccn3)nn2)cc1	-5	-9
COc1ccc(-c2noc(CCC(=O)NNC(=O)c3cc(Cl)ccc3O)n2)cc1	-2	-4
c1ccc(Oc2ccc(-c3cnn4c(NCCc5ccccn5)ccnc34)cc2)cc1	-7	-10
CCOc1ccc(-c2ccnc(N3CCN(C(=O)Cc4ccccc4)CC3)n2)cc1	1	-1
CCN(C(C)=O)C(C(=O)Nc1cccc(I)c1)c1ccc(F)c(F)c1 (stereo not given)	19	18
CCC(C)N(Cc1cc(NC(=O)C2CCCC2)ccc1N(C)C)C(=O)c1cccc(F)c1 (stereo not given)	6	18
C=C(Br)Cn1c(CCCC)nc2ccccc21	0	-1
O=C(CNCc1cccs1)Nc1cccc(Cl)c1	-1	-3
CC(NC(=O)c1ccc2c(c1)CCCC2)c1ccccn1 (stereo not given)	4	2
CC(C)(C)c1cc2nc(-c3ccccc3F)cc(C(=O)N3CCN(Cc4ccc5c(c4)OCO5)CC3)n2n1	7	12
Cc1ccc2[nH]c(C)c(CC(=O)N3CCOC(C)C3)c2c1 (stereo not given)	1	0
CCN(CC)c1ccc(CN(CCOC)C(=O)c2ccco2)c(OS(=O)(=O)CC)c1	5	9
CCC(C)NC(=O)c1cc(NC(=O)C(C)Cl)ccc1N1CCN(c2ccccc2OC)CC1 (stereo not given)	0	4
CC(O)c1cccc(-c2cc(NCc3cccnc3)nc3[nH]ccc23)c1 (stereo not given)	1	-4
CC(=O)OC[C@@H]1CN(Cc2ccccc2)C[C@H](n2cnc3c(N4CCCC4)ncnc32)O1	-11	-10
O=C(CCc1nccs1)N1CCCCC1Cc1ccc(F)cc1 (stereo not given)	8	8
C=C(C)COc1ccc(C(=O)N(C)C(C)c2ccon2)cc1 (stereo not given)	4	-11

Profiles, looked up by structure.
`CCN(CC)c1ccc(CN(CCOC)C(=O)c2ccco2)c(OS(=O)(=O)CC)c1` as listed: NPYLR7 ag = 5; NPYLR7 ag max-min = 9
`Cc1cc2nnc(C(=O)N(C)CC3OCCO3)c(C)n2n1` as listed: NPYLR7 ag = -8; NPYLR7 ag max-min = -13

Of the compounds above, 6 have an aryl methoxy group.
compound	NPYLR7 ag	NPYLR7 ag max-min
COc1ccc(C(=O)NC(C(=O)NC2CC2)C2CCN(C(=O)CCc3ccccc3)CC2)cc1 (stereo not given)	10	6
COc1ccc2sc(N(Cc3cccnc3)C(=O)c3ccc(C#N)cc3)nc2c1	-10	-6
COc1ccc(NC(=O)NCCCn2nc(-c3ccccc3)ccc2=O)cc1	-3	-5
COc1ccccc1C(=O)Nc1ccc(Nc2ccc(-n3cccn3)nn2)cc1	-5	-9
COc1ccc(-c2noc(CCC(=O)NNC(=O)c3cc(Cl)ccc3O)n2)cc1	-2	-4
CCC(C)NC(=O)c1cc(NC(=O)C(C)Cl)ccc1N1CCN(c2ccccc2OC)CC1 (stereo not given)	0	4

Remaining list, next part.
compound	NPYLR7 ag	NPYLR7 ag max-min
CCS(=O)(=O)Oc1ccc(CN(CC(C)C)C(=O)/C=C/c2ccccc2)cc1	14	10
CC(NC(=O)NCc1ccc(N2CCCC2=O)cc1)c1ccc(S(C)(=O)=O)cc1 (stereo not given)	3	0
CC(NC(=O)c1ccc(Br)s1)C(=O)OCCn1ccccc1=O (stereo not given)	-8	-7
Nc1cc(-c2ccccc2)no1	1	5
COc1ccc(C(=O)NCCn2ncc3c(=O)n(Cc4ccccc4C)cnc32)cc1	-2	-8
Nc1nc2nc(C(F)(F)F)[nH]c2c(=O)[nH]1	-4	-6
CCc1[nH]c(=S)c(C#N)c(C(F)(F)F)c1C	-1	-2
Cc1ccnc(NC(=O)c2c(O)c3ccccc3n(C)c2=O)c1	2	2
Cc1c(N2C(=O)C(=Cc3cccc([N+](=O)[O-])c3)SC2=S)c(=O)n(-c2ccccc2)n1C	-2	-6
Cc1cc(N2CCN(C(=O)Nc3ccccc3C(F)(F)F)CC2)nc(-c2cccc(C(F)(F)F)c2)n1	-4	0
NC(=O)COC(=O)COc1ccc(OCc2ccccc2)cc1	6	6
COCCN(C)c1ccc(N)nc1	13	3
N#Cc1ccc(C(=O)Nc2ccccc2NC2CCCCC2)cc1	5	0
CCC(CC)C(=O)NCCc1cc2ccc(C)c(C)c2[nH]c1=O	12	9
NC(=O)c1c(NC(=O)C2CCCO2)sc2c1CCCC2 (stereo not given)	0	-3
O=C(O)C1CCCN(C(=O)Cc2ccc(Cl)c(Cl)c2)C1 (stereo not given)	-2	-5
O=C(NCC1CCCO1)c1cc(-c2ccccc2)nc2ccccc12 (stereo not given)	-15	-18
Cc1cc(C)c(C(=O)CSc2nnc(-c3cccc(S(=O)(=O)N4CCCCC4)c3)o2)c(C)c1	6	6
CCN(C1CCCCC1)S(=O)(=O)c1cc2c3c(c1)CCN3C(=O)CC2	8	7
COc1ccccc1NC(=O)CC(C(=O)O)N(C)C (stereo not given)	0	4
CCN(Cc1ccncc1)C(=O)CSc1n[nH]c(C)n1	-2	-4
O=c1c2c(nc(SCc3ccccc3)n1-c1ccc(Br)cc1)CCS2	1	32
CS(=O)(=O)c1ccccc1C(=O)NCC1CN(c2ccc(F)cc2)C(=O)O1 (stereo not given)	7	5
Cn1nc([N+](=O)[O-])nc1Sc1ccc(C(C)(C)C)cc1	-4	-5
O=S(=O)(NCCN1CCOC(c2ccccc2)C1)c1cccc2ccccc12 (stereo not given)	-7	-10
CC(C)c1ccc(NC2CCCN(C(=O)CCn3cncn3)C2)cc1 (stereo not given)	1	-2
O=C(NCc1ccco1)C1COC2(CCN(C(=O)c3cccc(F)c3)CC2)N1C(=O)c1ccco1 (stereo not given)	-1	5
COc1cc(NC(=O)C=Cc2ccc3c(c2)OCO3)c(OC)cc1Cl	-9	-11
CC#CCN(Cc1ccco1)Cc1nc(-c2ccc(OC)c(OC)c2)oc1C	-10	-15
COCCN(Cc1ccc(OS(=O)(=O)c2ccc(F)cc2)cc1)C(=O)c1ccccc1Cl	22	30

Remaining list, next part
compound	NPYLR7 ag	NPYLR7 ag max-min
CC(=O)c1cccc(OCc2nnc(-c3ccccc3)o2)c1	-3	-3
CCc1c(C)cc(C(=O)N2CCCC(Nc3ccc(OC)cc3)C2)c(=O)n1C (stereo not given)	2	1
C1CCC(Nc2nc3nonc3nc2NC2CCCCC2)CC1	-6	-5
CC(C)Nc1nnc(SCc2ccc(F)cc2)s1	0	2
CCOc1ccc(OCCNC(=O)C2CCN(S(=O)(=O)c3ccc4c(c3)CCC4)CC2)cc1	3	7
O=C(O)[C@@H]1C[C@H](C(=O)O)N1	-4	-3
NC(=O)CSc1nc2ccc(Br)cc2[nH]1	1	-6
Cc1ccc(-c2nc3cc(C)ccn3c2NC(=O)C2CC2)cc1	-4	3
O=C1C2C3C=CC(C3)C2C(=O)N1c1ccc(F)cc1Cl (stereo not given)	-14	-17
C=CCC(CC(=O)O)C(=O)N1CCSC1 (stereo not given)	-4	-10
CON(C)C(=O)C(NC(=O)c1c(F)cccc1F)C(C)C (stereo not given)	0	-9
CCCN(C(=O)c1ccc(-n2ccnc2)cc1)C1CCCC1	32	16
CC(C)NCC(=O)Nc1nc(-c2ccccc2)cn1-c1ccccc1	11	7
OCCCCCNc1ncnc2sc3c(c12)CCCC3	-1	-3
CC(Oc1ccccc1F)C(=O)NNC(=O)c1ccc(Br)cc1 (stereo not given)	-2	-2
Cc1cccc2c1C(=O)NC(c1csc(COc3ccc(Cl)cc3)n1)N2 (stereo not given)	14	8
Cc1nonc1NC(=O)OCCN1CCOC1=O	7	4
O=C(NC1CCCCC1)N1CCn2cccc2C1c1ccncc1 (stereo not given)	9	1
CN(Cc1nc2ccccc2s1)CC(O)COc1ccccc1F (stereo not given)	-6	-5
Cc1c(Br)c([N+](=O)[O-])nn1CC(=O)N1CCCCCC1	5	4
O=C(Nc1cccc2ccccc12)C1CCCN1S(=O)(=O)c1cccs1 (stereo not given)	3	1
Cc1cc(N2CCN(CCO)CC2)n2nc(C)c(-c3ccccc3Cl)c2n1	1	6
CCSc1nnc2c(n1)OC(c1cc(Br)c(O)c(Br)c1)Nc1ccccc1-2 (stereo not given)	-10	-13
CCc1cc2c(NCc3cccnc3)nc(C)nc2s1	4	5
CCCNS(=O)(=O)c1cc(Cl)c(OC)cc1Cl	3	0
COC(=O)c1ccccc1NC(=O)c1nnn(-c2ccc(C)cc2)c1C	5	-2
COc1ccccc1-c1ccc(SCC(=O)N2CCCC2)nn1	7	5
O=C1CCCCC1Sc1ncnc2sccc12 (stereo not given)	8	8
Cc1cc(C(=O)CN2C(=O)NC(c3ccccc3)(c3ccccc3)C2=O)c(C)[nH]1	3	7
CCOC(=O)c1ccsc1NC(=O)c1cc(OC)cc(OC)c1	14	13

Next compounds:
compound	NPYLR7 ag	NPYLR7 ag max-min
O=C1CCCN1C(=O)COC(=O)C12CC3CC(CC(Cl)(C3)C1)C2	-2	-4
CCCNC(=O)Cn1cc(OC)c(=O)cc1CSc1ncccn1	-4	-8
CCOC(=O)c1nn(-c2ccccc2C)c(=O)cc1OS(=O)(=O)c1ccc(OC)c(C)c1	0	4
N#CC1C(=N)Oc2cc(O)ccc2C1c1ccc2c(c1)OCO2 (stereo not given)	4	2
COC(=O)c1ccc(CN(CCN2CCOCC2)Cc2sccc2C)o1	-2	7
CCOc1ccc2nc(Nc3nc(C)c(C)c(=O)[nH]3)nc(C)c2c1	1	-2
COc1cccc(/C=C2N=C(/C=C\c3cccc([N+](=O)[O-])c3)OC/2=O)c1	8	4
COC(=O)c1ccc(C(=O)N2CCN(c3c4c(nc5ncnn35)CCCC4)CC2)cc1	4	-2
c1cc2c(cc1N1COc3cc4c(cc3C1)OCO4)OCO2	2	0
COc1ccc(Cl)cc1Cn1cc(C(=O)NCc2cccc(C(F)(F)F)c2)sc1=O	10	3
N#CCCN(CCc1ccccn1)C(=O)c1ccc(-n2nc(-c3ccc(Cl)cc3)cc2N)cc1	13	10
Cc1ccccc1C1c2ccsc2CCN1C(=O)CN(C(C)C)S(=O)(=O)c1cc(Cl)ccc1Cl (stereo not given)	6	-4
Cc1ccc2nc(NC(=O)CSc3nnc4ccc(-c5cccnc5)nn34)sc2c1	-16	-10
COc1ccc(-c2[nH]ncc2CN2CCCC(N(C)CCc3ccccc3)C2)cc1 (stereo not given)	17	8
CN(C)CCNC(=O)c1cc(-c2ccccc2)nc2cc(C(C)(C)C)nn12	3	4
CCN1CCN(C(c2cccs2)C2Sc3nc(-c4ccco4)nn3C2=O)CC1 (stereo not given)	2	3
CCC(C)N(CCC(=O)N1CCN(c2ccc(OC)cc2)CC1)c1nc(Cc2cccc(OC)c2)ns1 (stereo not given)	-4	3
CC1CCN(C(CNC(=O)c2cnc(N)c(Cl)c2)C(C)C)CC1 (stereo not given)	10	7
CN(Cc1ccco1)C(=O)C(C1CCCC1)N1CCN(C(=O)c2ccc(C(F)(F)F)cc2)CC1 (stereo not given)	-8	15
COc1cc2c(c(OC)c1OC)-c1ccc(OC)c(=O)cc1[C@@H](NC(C)=O)CC2	-7&-11&3	-11&-12&-6
CC(C)Nc1ncccc1C(=O)NC(c1ccccc1)c1ccc(Cl)cc1 (stereo not given)	-2	-6
O=C(c1ccc(F)cc1)N1CCc2nc(-c3ccccc3)nc(N3CCCC3)c2C1	5	5
CCOC(=O)c1ccc(OC2CC3CCC(C2)N3C(=O)c2ccc(CSCCc3ccccc3)cc2)cc1 (stereo not given)	22	15
CCOc1ccc(-n2nnc3c(=O)n(Cc4ccc(F)cc4)cnc32)cc1	9	11
CC1CCC(NS(=O)(=O)c2c(Cl)cccc2Cl)CC1 (stereo not given)	2	3
Cc1ccc(NC(=O)c2cc(-c3cccs3)nn2-c2cccc([N+](=O)[O-])c2)cc1C	20	20
CCOc1ccc(NC(=O)N2CCN(C(c3ccccc3)c3ccc(Cl)cc3)CC2)cc1 (stereo not given)	19	19
Cc1ccccc1Cn1c(C)c(N2CCOCC2)c(C)c1C(=O)N1CCN(c2ccccc2F)CC1	25	37
Cc1cn2c3c(=O)[nH]c(=O)n(C)c3nc2n1CCCN1CCc2ccccc2C1	8	3

Some of the compounds tested; the hit share may differ from the screen's.
